PrP UTR inh: suppresses PrP 5' UTR mRNA reporter expression; inhibition, % (concentration not given with the values); AID 488862; cell-based PrP 5' UTR mRNA reporter, plate reader; actives 0.35% (n = 340,000);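 active means every replicate at 50% or more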;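 further: 0 = median of the neutral control wells; tested in H4 reporter cells; numbers are from one replicate; inactives centre near -14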
Sa ugtP lethal: compounds lethal to S. aureus RN4220 ugtP deletion mutant; growth inhibition, % (test concentration not listed); OD600 growth, 16 h; some inactives read as strong as hits; actives 0.54% (n = 330,000);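 active means z-score under -3 and OD600 up to 0.15 on both plates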;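 further: plate controls were untreated wells for no effect and antibiotic for full effect; wells of about 80 µL received 100 nL stock; the first replicate is given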
Mtb hypoxia inh: Mtb hypoxia fluorescent reporter inhibition | M. tuberculosis hypoxia-regulated fluorescent reporter, fluorescence | fluorescence inhibition, % (concentration not given with the values) | actives 0.1% (n = 300,000) | AID 1159583;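 active means 35 to 45% if threefold the growth effect, above 45% if 1.5-fold the growth effect; inactive means the rest, general growth blockers included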;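 further: wells of about 50 µL received 100 nL stock; 0% = vehicle wells and 100% = reference inhibitor wells; whole bacteria with a GFP reporter of the hypoxia response; strong numbers were not always called active; many hits fall short of the cut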
BJeLR viability: BJeLR cell viability loss. BJeLR (HRASV12) viability, CellTiter-Glo ATP luminescence, 48 h; reference of the scale not given here. inhibition, % (no concentration beside the values). actives 0.17% (n = 300,000);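 active means replicate mean above 50%; inconclusive means above 50% but judged a plate artefact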;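 further: 50 nL library stock added to about 25 µL; numbers are from one replicate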
Bead autofluor: flagged as autofluorescent in microsphere protease counterscreen; compound autofluorescence counterscreen, microsphere flow cytometry; hits give high values; fluorescence intensity (no concentration beside the values); actives 3.1% (n = 360,000);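 active means at least 3 SD above the mean of all compounds, about 16000 in these data; inconclusive means too few beads counted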;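 further: 100 nL of 1 mM stock went into each well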
Sa RN4220 lethal: kills Staphylococcus aureus RN4220; S. aureus RN4220 growth, OD600, 16 h; inhibition, % (concentration not given with the values); actives 0.33% (n = 330,000);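 active means z-score of -3 or lower and OD600 up to 0.18 on both plates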;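 further: plate controls were untreated cells for no effect and reference antibiotic for full effect; stock transfer was 100 nL into about 80 µL; one replicate is shown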
Mtb hypoxia inh growth: recorded beside Mtb hypoxia inh, whose call it bears; growth inhibition, %; measured here: M. tuberculosis growth (absorbance);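 0% = vehicle and 100% = reference antibiotic; read after six days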
* = called active by the depositor; u = inconclusive; x = no result given. Outcome played no part in choosing rows (roughly 4% active in at least one column).

SMILES	PrP UTR inh	Sa ugtP lethal	Mtb hypoxia inh	Mtb hypoxia inh growth	BJeLR viability	Bead autofluor	Sa RN4220 lethal
Cn1c(SCC(=O)N2CCCCC2)nnc1-c1ccc(S(=O)(=O)N2CCOCC2)cc1	-11.2	6.2	5.8	18.6	-0.7	17538*	7.1
Cc1cc(-c2ccccc2)nc(N(C)NC(=O)c2cccc(C(F)(F)F)c2)c1S(C)(=O)=O	6.0	-0.5	x	x	8.8	2390	-2.8
O=C(CS(=O)(=O)c1ccc(C(F)(F)F)cn1)NNC(=O)c1ccccc1	-28.9	8.1	1.6	5.4	-5.6	5960	1.3
CNc1nc(OC)nc(N2CCOCC2)n1	-12.5	4.7	x	x	-2.6	4780	1.7
COC(=O)C1=C(c2ccc(Cl)c(C(F)(F)F)c2)CC2CCC1N2C(=O)NCc1cc(C)oc1C(F)(F)F (stereo not drawn)	x	-23.5	5.7	3.1	x	x	-8.2
CC(=O)c1ccc(NC(=O)c2ccc(NC(=O)CCS(=O)(=O)c3cccs3)cc2)cc1	-31.0	12.1	13.1	13.5	-3.2	3244	4.2
Cc1cccc(-n2c(N)cc(=O)[nH]c2=S)c1C	-2.8	3.5	x	x	0.1	4812	1.3
COc1ccccc1NC(=S)N(CCCN1CCOCC1)Cc1cccs1	-8.3	20.5	7.9	1.1	4.7	3057	7.3
COc1ccc(OC)c2sc(NC(=O)c3ccc(Cl)s3)nc12	-22.3	-12.5	3.0	8.0	2.3	7060	-15.0
Cc1ccccc1CCNC(=O)CCn1nc(C)c2c(C)n(-c3ccccc3)nc2c1=O	2.2	2.2	16.0	2.4	-5.6	6045	-0.6
O=C(c1cc(C2CC2)on1)N1CCN(C(c2ccccc2)c2ccccc2)CC1	-7.7	4.6	x	x	0.7	5003	-6.1
N#Cc1ccsc1NC(=O)CN1CCN(c2ccccc2)CC1	-4.7	4.4	7.5	-2.8	-6.4	2328	2.5
COc1ccc(C(=O)Nc2ccc3nc(N4CCCCC4)cc(C)c3c2)cc1OC	-15.5	-2.2	3.0	13.4	6.9	4133	4.5
Cc1ccc(NC(=O)CCC(=O)N/N=C/c2cccs2)cc1	1.4	x	x	x	-8.0	2545	x
Cc1cccc(N=Nc2cnc(N)s2)c1	-65.2	2.4	-8.7	1.1	-1.2	5414	9.8
CCN(CC)CCCNC(=O)c1ccccc1NC(=O)C1=CSCCO1	-1.9	4.9	8.0	-3.6	-5.9	4266	2.3
O=C(Cn1cnc2sc3c(c2c1=O)CCCC3)NCCCC(=O)N1CCC2(CC1)OCCO2	-4.2	4.8	19.5	4.5	7.3	2960	1.6
CC(=O)c1cc(-c2ccccc2)n(CC(=O)N2CCC(N3CCCCC3)CC2)c1C	-9.2	-4.6	x	x	5.5	4487	-4.2
O=C(/C=C\c1cn(-c2ccccc2)nc1-c1ccc2c(c1)OCCO2)N1CCOCC1	-10.4	-17.9	5.4	-3.6	-0.5	1983	-1.8
Cc1cc(OC(C)C(=O)N[C@H](C(=O)O)c2ccccc2)c2c3c(c(=O)oc2c1)CCC3 (stereo partly drawn)	-14.0	2.3	x	x	8.9	5558	2.8
CCOC(=O)C1CN(C)CCC1=O (stereo not drawn)	-20.1	-2.4	x	x	6.2	2455	-0.1
O=[N+]([O-])c1ccc(NC2CCCCC2)nc1	-22.4	-7.0	7.9	2.0	x	3728	4.0
COC(=O)c1ccc(Nc2cc(C)nc3nc(C)nn23)cc1	-14.6	-13.4	x	x	-10.5	4601	1.9
CCNc1nc(SCC(=O)OC)nc(N(C)C)n1	-20.2	-9.6	-5.9	-0.2	13.5	3210	0.3
N#Cc1cnn2c(-c3cccc([N+](=O)[O-])c3)ccnc12	-17.1	0.3	7.3	2.0	x	3674	-0.9

(list continues)
SMILES	PrP UTR inh	Sa ugtP lethal	Mtb hypoxia inh	Mtb hypoxia inh growth	BJeLR viability	Bead autofluor	Sa RN4220 lethal
O=C1c2ccccc2N2C(=O)c3ccccc3C2N1Cc1ccco1 (stereo not drawn)	-9.8	2.8	2.3	5.3	-15.2	4357	7.9
CC(C)N(C(=O)CSc1nnc(-c2cc3ccccc3cc2O)n1Cc1ccco1)C(C)C	-25.8	-5.7	2.6	8.1	-0.8	20006*	-0.6
COC(=O)CSc1nc(NC(C)C)nc(N2CCOCC2)n1	-26.0	2.5	x	x	1.8	5278	-1.7
COc1ccc(N/C=C/C(=O)C(C)(C)C)cc1	-25.7	5.5	11.0	18.9	0.9	2432	1.2
CCOCCCNC(=S)N1CCCN(c2nc3c(C)c(C)ccc3cc2C#N)CC1	-5.1	-10.7	6.9	14.9	-3.5	4541	5.5
Cc1ccc(CNC(=O)c2ccc3c(c2)NC(=O)C(N2CCOCC2)S3)cc1 (stereo not drawn)	-9.2	9.1	6.8	11.1	-7.0	3449	3.6
COc1ccc(C(=O)COC(=O)CN2C(=O)NC(C)(C)C2=O)cc1OC	0.8	-4.3	-0.8	9.7	2.7	9678	1.8
Cc1ccc(C(=O)NCC(c2ccc(F)cc2)N2CCOCC2)cc1S(=O)(=O)N1CCOCC1 (stereo not drawn)	-10.6	0.9	0.7	1.5	x	6350	1.2
CC(Cc1ccccc1)=NNC(=O)c1ccccn1	x	3.8	4.7	4.9	x	x	2.7
Cc1cccc(NC(=O)CN2C(=O)c3ccccc3C2=O)c1C	-7.8	4.8	-6.4	-20.2	-0.4	4335	-1.4
Cc1cc(C)c(NC(=O)CNC(=O)COC(=O)Cc2ccccc2C)c(C)c1	-4.8	-0.9	-9.4	2.0	x	8454	5.3
C=CCSC(N)=NN=Cc1c(O)ccc2ccccc12	x	4.2	10.7	1.5	x	x	-0.5
COc1ccc(S(=O)(=O)NCc2ccc(F)cc2)cc1OC	-41.4	-0.2	19.0	7.4	3.0	5364	4.6
COc1ccc(CCC(=O)OCC(=O)c2cccc(OC)c2)cc1	-3.0	8.3	12.8	2.4	-5.5	3803	3.8
Cc1cc(N=Nc2c(O)c3ccccc3[nH]c2=O)ccc1N=Nc1ccc(C(=O)N(C)C)cc1	-23.5	x	x	x	9.7	3271	x
COC(=O)Nc1c(C(=O)OC)cc(OC)c(OC)c1OC	3.8	-3.4	5.2	12.0	-1.0	x	1.3
COc1cc2ccccc2cc1C(=O)N1CCN(c2ccccc2O)CC1	-15.1	-2.9	1.4	-8.6	x	8524	10.4
CC(NS(=O)(=O)c1cc(C(F)(F)F)ccc1Cl)C(=O)N(C)C1CCN(C)CC1 (stereo not drawn)	-25.5	3.9	1.9	-1.7	x	5275	7.3
Cc1ccc(CNC(=O)CN(C)S(=O)(=O)c2cccs2)cc1	-20.1	0.5	5.3	-5.4	-0.8	4883	-1.5
CCN(CC)S(=O)(=O)c1cc(NC(=O)COC(=O)c2sc3ccccc3c2Cl)ccc1C	-12.2	2.1	-5.4	-4.4	-15.2	7404	8.2
O=C(N/N=C/c1ccccc1)C(=O)N/N=C/c1ccccc1	3.0	x	x	x	-16.9	3669	x
Cc1cccc(NC(=S)NC(=O)/C=C/c2ccco2)c1	-38.5	66.6	7.5	5.5	6.2	4810	4.7
Cc1nnc(SCC(=O)N(CC(C)C)C2CCS(=O)(=O)C2)n1N (stereo not drawn)	-7.3	4.0	7.5	7.5	x	3555	3.7
Cc1ccc(-c2cc(C(F)F)nc(NCc3cccnc3)n2)cc1	-18.7	-1.9	8.3	9.3	8.7	9787	0.3
COc1cccc(N2CCN(C(=S)NCc3ccco3)CC2)c1	-8.9	-2.4	-1.9	-1.4	1.6	16347*	2.2

7 of the compounds above, as comma-separated lines.
Molecule,PrP UTR inh,Sa ugtP lethal,Mtb hypoxia inh,Mtb hypoxia inh growth,BJeLR viability,Bead autofluor,Sa RN4220 lethal
COc1cc2ccccc2cc1C(=O)N1CCN(c2ccccc2O)CC1,-15.1,-2.9,1.4,-8.6,x,8524,10.4
CC(NS(=O)(=O)c1cc(C(F)(F)F)ccc1Cl)C(=O)N(C)C1CCN(C)CC1 (stereo not drawn),-25.5,3.9,1.9,-1.7,x,5275,7.3
Cc1ccc(CNC(=O)CN(C)S(=O)(=O)c2cccs2)cc1,-20.1,0.5,5.3,-5.4,-0.8,4883,-1.5
CCN(CC)S(=O)(=O)c1cc(NC(=O)COC(=O)c2sc3ccccc3c2Cl)ccc1C,-12.2,2.1,-5.4,-4.4,-15.2,7404,8.2
O=C(N/N=C/c1ccccc1)C(=O)N/N=C/c1ccccc1,3.0,x,x,x,-16.9,3669,x
Cc1cccc(NC(=S)NC(=O)/C=C/c2ccco2)c1,-38.5,66.6,7.5,5.5,6.2,4810,4.7
Cc1nnc(SCC(=O)N(CC(C)C)C2CCS(=O)(=O)C2)n1N (stereo not drawn),-7.3,4.0,7.5,7.5,x,3555,3.7

Remaining list, next part:
SMILES	PrP UTR inh	Sa ugtP lethal	Mtb hypoxia inh	Mtb hypoxia inh growth	BJeLR viability	Bead autofluor	Sa RN4220 lethal
COc1ccccc1NC(=O)CN1C(=O)CCS(=O)(=O)c2ccccc21	-14.1	5.8	x	x	2.3	3054	7.4
O=S(=O)(c1ccc(C(F)(F)F)cc1)N1CCN(CCc2ccccc2)CC1	-30.0	9.3	1.3	1.6	2.0	3531	5.1
COc1ccc(COC(=O)c2ccc(S(=O)(=O)N3CCCCC3)cc2)cc1OC	-13.9	5.6	0.8	4.4	x	3866	4.4
O=C(Cn1cnc([N+](=O)[O-])n1)NN=Cc1ccc(O)cc1O	x	4.9	3.4	-5.9	x	x	1.2
COc1ccc(C(CNC(=O)CCNS(=O)(=O)c2ccccc2C(F)(F)F)N2CCOCC2)cc1 (stereo not drawn)	-9.6	1.5	-1.3	14.2	x	u	0.7
CC1CCN(C(=O)c2ccccc2NC(=O)c2cccc(S(=O)(=O)N(C)C)c2)CC1	-40.6	1.5	-3.4	0.0	1.5	5372	4.8
CCOc1ccc(C(=O)NCC(=O)NC(C)CCc2ccccc2)cc1OCC (stereo not drawn)	-8.5	2.6	1.9	10.8	4.1	5620	-3.5
O=C(Nc1ccc2c(c1)OCO2)c1cc(C2CC2)on1	-59.8	12.3	7.1	7.5	-3.6	6700	-0.2
COc1ccc(NC(=O)Cc2ccc(Cl)cc2)cc1S(=O)(=O)N1CCCCC1	-14.0	2.5	6.8	-7.8	x	9048	-0.4
CC(=NOCC(=O)NCCCCCCNC(=O)CON=C(C)c1cccs1)c1cccs1	x	9.8	8.2	6.6	x	x	-4.9
O=C(C1CCCO1)N1CCC(O)(c2ccccc2)CC1 (stereo not drawn)	-12.8	1.4	x	x	-1.0	3556	-1.3
Cc1ccc(C(=O)OCc2c(C)noc2C)cc1NC(=O)c1ccco1	-18.0	-4.7	9.3	13.4	-3.7	4322	1.2
CC(=NNc1cccc([N+](=O)[O-])c1)c1cc(F)ccc1O	x	6.7	0.9	8.3	x	x	-6.1
N#Cc1ccc(-n2c(-c3ccccc3)nnc2-c2ccccc2)cc1C#N	-19.3	4.6	4.4	4.1	4.1	4258	7.6
CCN1C(=NCC2CC2)NC(c2ccccc2)C(C(=O)OC)=C1C (stereo not drawn)	x	2.0	15.0	4.5	x	x	4.7
Cc1ccc(-n2nnnc2SCC(=O)c2c(N)n(C3CC3)c(=O)[nH]c2=O)c(C)c1	-12.6	-2.3	3.6	5.3	x	x	9.2
COc1cc(NC(=O)c2ccc3c(SCC(=O)O)c4c(nc3c2)CCCC4)cc(OC)c1OC	-17.8	4.6	11.4	0.7	-16.5	3136	1.0
CC1=CC(c2ccccc2)n2nc(N3C(=O)C4CC=CCC4C3=O)nc2N1 (stereo not drawn)	-49.8	7.2	18.6	10.5	2.7	4631	4.3
COc1ccc(C2N3CC4(C)CN2CC(C)(C3)C4=O)cc1OC (stereo not drawn)	12.2	-6.5	x	x	-1.6	5741	1.4
COc1cccc(-c2cc(C(=O)Nc3cccnc3)c3ccccc3n2)c1	-14.3	-10.0	-5.4	-2.5	-15.4	7152	-5.5
Cc1cccc(NC(=O)c2cccc(OC(=S)N3CCOCC3)c2)c1	-26.8	6.2	17.6	11.1	-8.7	5459	1.4
Cc1cccc(OCC(=O)Nc2ccc(S(=O)(=O)Nc3cc(C)nc(C)n3)cc2)c1	-25.8	10.5	8.9	7.7	5.0	3412	2.9
CCOC(=O)c1nn(-c2ccc(F)cc2)c(=O)cc1OCC(=O)N1CCN(c2ccccc2)CC1	-3.5	1.4	-6.8	4.9	-5.2	u	2.8
CN(C)C(=O)c1cc(-c2ccccc2)no1	-0.6	10.2	0.7	-12.3	-3.0	4576	8.5
CCS(=O)(=O)Nc1cccc(C(=C2CCCCC2)c2cnc[nH]2)c1	-9.4	2.6	-0.3	7.2	x	5689	3.7
CC(=O)c1ccc(S(=O)(=O)Nc2ccc(C(=O)NCC(c3ccccc3)N(C)C)cc2)cc1 (stereo not drawn)	4.7	2.2	8.2	-4.9	-14.6	3208	3.6
